Screening results deposited in PubChem BioAssay by National Center for Advancing Translational Sciences (NCATS).
TRPML1 ag: agonists of human TRPML1 channel; TRPML1-expressing cells, Ca2+ dye fluorescence, FDSS; host cell line not named in the record; reference of the full effect not given here; activation, % (test concentration not listed); 410,000 tested, 0.12% active; AID 624414; in the data active = activation above about 50%; inconclusive = about 30% to 50%; inactive = below about 30%; further: 0% is about no effect; the text of the record puts the active cut at 80%
Target sequence (Q9GZU1 whole entry, looked up): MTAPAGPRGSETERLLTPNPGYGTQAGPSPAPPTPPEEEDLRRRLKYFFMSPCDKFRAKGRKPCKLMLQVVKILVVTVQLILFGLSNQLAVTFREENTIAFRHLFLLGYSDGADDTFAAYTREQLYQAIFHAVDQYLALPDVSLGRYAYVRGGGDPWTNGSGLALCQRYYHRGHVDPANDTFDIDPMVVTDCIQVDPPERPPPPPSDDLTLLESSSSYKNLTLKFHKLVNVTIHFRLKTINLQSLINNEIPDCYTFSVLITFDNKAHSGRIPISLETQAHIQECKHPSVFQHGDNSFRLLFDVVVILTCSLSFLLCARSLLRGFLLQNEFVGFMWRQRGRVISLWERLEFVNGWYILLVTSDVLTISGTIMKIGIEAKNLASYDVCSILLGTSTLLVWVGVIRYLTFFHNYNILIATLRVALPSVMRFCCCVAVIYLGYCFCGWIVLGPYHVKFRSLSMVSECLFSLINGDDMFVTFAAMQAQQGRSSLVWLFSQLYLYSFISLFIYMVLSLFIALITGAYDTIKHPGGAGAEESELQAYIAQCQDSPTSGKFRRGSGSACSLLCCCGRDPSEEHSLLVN
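Tet-induced TRPML1-DL cells, 1,500 per well, cultured overnight, were loaded with a no-wash Ca2+ dye for 45–90 min. Calcium fluorescence was recorded on the FDSS for 110 s after compound addition, before the EC80 agonist (4 uM 54-4) was added.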
D2 agonist: activates the human D2 dopamine receptor; DiscoveRx PathHunter D2 beta-arrestin, luminescence, 90 min; 100% = 57 uM dopamine signal; P14416; 360,000 tested, 0.084% active; activation, % (concentration not given with the values); in the data active = activation above about 40%; inconclusive = about 15% to 40%; inactive = below about 15%; further: compound concentration not given in the record; the text of the record calls up to 30% inactive
Target sequence (P14416 whole entry, looked up): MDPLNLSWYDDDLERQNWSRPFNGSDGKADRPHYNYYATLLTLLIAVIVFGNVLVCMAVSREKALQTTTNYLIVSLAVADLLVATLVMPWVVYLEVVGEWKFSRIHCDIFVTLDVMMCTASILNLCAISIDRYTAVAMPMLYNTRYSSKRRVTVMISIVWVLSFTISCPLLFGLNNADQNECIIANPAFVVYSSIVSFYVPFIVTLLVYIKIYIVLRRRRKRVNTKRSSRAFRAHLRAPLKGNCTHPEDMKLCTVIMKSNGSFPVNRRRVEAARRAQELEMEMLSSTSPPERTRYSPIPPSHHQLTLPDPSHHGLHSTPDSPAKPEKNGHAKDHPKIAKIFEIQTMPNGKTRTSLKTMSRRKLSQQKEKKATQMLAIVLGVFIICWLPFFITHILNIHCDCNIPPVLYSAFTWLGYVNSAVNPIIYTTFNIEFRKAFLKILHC
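DiscoveRx PathHunter D2 beta-arrestin cells (2,100/well) attached overnight, then compound-stimulated 90 min at 37 C in HBSS/10 mM HEPES/0.1% Tween-20 buffer; beta-galactosidase complementation read by luminescence after 1 h at ambient temperature. Dopamine 57 uM final (EC100) as control.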
D2 potentiator: positive allosteric modulators of human D2 dopamine receptor. potentiation, % (test concentration not listed). 360,000 tested, 0.23% active. DiscoveRx D2 beta-arrestin cells, luminescence, 90 min; 100% = 57 uM dopamine signal. AID 624464. P14416; active = potentiation of 50% or more; inconclusive = 30% to 50%; inactive = 30% or less;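 further: compound concentration not given in the record; tested on top of an EC20 dose of dopamine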
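PathHunter D2 cells, attached overnight at 37 deg C, received compound in DMSO plus dopamine at EC20 (50 nM final) for 90 min at 37 deg C. Beta-arrestin recruitment was read as luminescence after 1 h with detection reagent at ambient temperature.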
PINK1 expr mod: modulators of PINK1 expression; PINK1 immunofluorescence, high-content cytometry, 24 h; Potency, µM (top dose mostly 76.6 µM), inactives show at the highest dose activation (PINK1 increase), actives largely listed as activators; 410,000 tested, 0.2% active; active = well fitted activation curve with a large enough effect; inconclusive = small, poorly fitted or top-dose-only effect; inactive = flat fitted curve, though single readings scatter; cell line not stated here;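 further: potency means the concentration at half of the fitted maximal effect; % of control where 0% means no effect; nearly all actives have a fitted effect of over 65% in size; a mitochondrial uncoupler was the plate control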
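Stable cell line treated 24 h with compounds at 5 concentrations (CCCP controls), then fixed and immunostained for PINK1 plus nuclear and cell stains; PINK1 immunofluorescence quantified by laser-scanning microplate cytometry.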
Six1-Eya2 blk: blocks human Six1 binding to Eya2. AlphaScreen GST-Six1/His-Eya2 binding, biochemical; active compounds read low; control for the full effect not named in the record. activity change, % (no concentration beside the values). 360,000 tested, 0.56% active; in the data active = activity change below about -65%; inconclusive = about -30% to -65%; inactive = above about -30%; further: on the % scale 0 is the no-effect control and ±100 the full control effect
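Compounds are tested against tagged Six1 and Eya2 proteins bridged by glutathione donor and nickel acceptor beads; after a one-hour incubation at 37 °C without light, AlphaScreen emission is recorded.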
TRPML1 blocker: human mucolipin-1 channel inhibition | activity change, negative = inhibition, % (concentration not given with the values) | TRPML1-inducible cells, Ca2+ dye fluorescence, FDSS; active compounds read low; inhibition of EC80 agonist-evoked calcium signal | Q9GZU1 | 390,000 tested, 0.02% active | AID 624415; in the data active means activity change below about -50%; inconclusive means about -30% to -50%; inactive means above about -30%;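 further: stimulus is agonist 54-4 at its EC80 concentration; on the % scale 0 is the no-effect control and ±100 the full control effect; the text of the record puts the active cut at -80%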
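TRPML1-DL cells, Tet-induced overnight (~16 h, 37 °C) at 1,500 cells/well, were loaded with Ca8 no-wash dye plus quencher for 45-90 min at room temperature. Compounds were pinned during FDSS kinetic reading; agonist 54-4 at EC80 (4 uM final) then added.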
Starred values were filed as active, the others as inactive; u = inconclusive; x = no result given; & = joins results of further samples.

SMILES | TRPML1 ag | D2 agonist | D2 potentiator | PINK1 expr mod | Six1-Eya2 blk | TRPML1 blocker
CCOc1ccc(NC(=S)N2CCC(C(N)=O)CC2)cc1 | 0.4 | -1.5 | -25 | -1.0% | 4 | -1
CCn1c(SC(=O)NC2CCCCC2)nnc1-c1cccs1 | 0.0 | 0.3 | -14 | 2.9% | 0 | 10
CCOc1cc(C)c(S(=O)(=O)NCCCn2ccnc2)cc1C | 1.1 | -1.1 | -2 | -0.3% | -2 | -3
COc1ccc(/C=N/NC(=O)c2ccc(CN3C(=O)c4cccc5cccc3c45)cc2)cc1O | 0.6 | 7.3 | -6 | -1.7% | -1 | -13
CCc1ccccc1NC(=O)c1nn(-c2ccc(C)cc2)c(=O)c2c1c1ccccc1n2C | -0.2 | x | x | 3.9% | x | 14
COc1ccc(NC(C)=O)cc1S(=O)(=O)NC(Cc1ccccc1)C(=O)NCc1ccccc1C (configuration not stated) | 3.4 | 4.5 | 3 | 2.8% | 1 | 26
Cc1ccc(CN2CCNC(=O)C2CC(=O)NC2CCCCCC2)o1 (configuration not stated) | -0.4 | -5.7 | -5 | -1.1% | 7 | 4
COC(=O)[C@]12CCCCC=C1N(Cc1ccc(Cl)cc1Cl)C(=O)[C@H](CC(=O)NCc1cccs1)C2 | -0.8 | x | x | 2.6% | 2 | x
Cc1ccc(-c2nnc(-c3ccccc3)o2)cc1Br | -0.3 | -0.5 | -7 | 9.2% | 5 | 50
CN(C)c1ccc(/C=N\NC(=O)c2ccc(Cn3cc(Cl)cn3)cc2)cc1 | 2.7 | 0.0 | -10 | u | -2 | 15
CCCN(CCC)C(=O)C1CCN(c2ccc(S(=O)(=O)N3CCOCC3)cc2[N+](=O)[O-])CC1 | -0.4 | -1.6 | 13 | 1.9% | -4 | -7
CCOC(=O)c1sc(NC(=O)Nc2ccc(F)cc2)nc1C | 0.2 | -3.2 | -4 | 12% | 2 | -2
CCOc1ccccc1-c1noc(CCC(=O)Nc2cccnc2)n1 | -0.4 | -4.4 | -7 | 0.0% | 17 | -22
CC(=O)N1CCN(CC(=O)Nc2ccc(C)c(S(=O)(=O)N(C)C)c2)CC1 | -0.4 | 1.7 | -1 | -0.3% | -6 | 9
CC(C)n1c(NCc2nc3ccccc3n2C)nc2ccccc21 | 2.2 | -4.4 | -12 | 3.1% | -11 | 7
CC(C(=O)Nc1cccc(C#N)c1)n1nc(-c2ccccc2)c2c(c1=O)CCCC2 (configuration not stated) | 0.2 | x | x | -0.1% | x | 7
C[C@H](NC(=O)c1ccccc1)C(=O)OCC(=O)Nc1ccc2c(c1)OCO2 | -0.4 | -3.8 | -6 | -1.0% | 2 | 25
Cc1cccc(N2C(=O)C3C4C=CC(CC4)C3C2=O)c1 (configuration not stated) | x | -7.4 | 16 | -0.7% | 11 | x
Cc1cc(NCCO)nc(-n2nc(C)cc2C)n1 | 1.1 | 2.1 | -2 | -0.9% | -8 | 11
O=C(C[n+]1ccc2ccccc2c1)c1ccc2ccc3ccccc3c2c1 | -0.1 | x | x | -0.3% | -3 | x
COc1ccc(NC(=O)Cn2cnc3c(cnn3C(C)(C)C)c2=O)cc1OC | 1.9 | -2.9 | 1 | 0.4% | 0 | 2
O=C1CC(SCCO)C(=O)N1c1ccccc1 (configuration not stated) | 0.6 | -3.5 | -8 | u | 1 | -15
CCNC(=O)c1cc2n(n1)CCCN(Cc1ccc(C)cc1)C2=O | -0.2 | x | x | 0.6% | x | -12
COc1ccc(/C=N/OC(=O)Nc2ccc(Cl)cc2)c(OC)c1 | -0.1 | -6.7 | -14 | 1.6% | 42 | 11
O=C(Nc1ccc(Br)cc1)C1CCCN(S(=O)(=O)c2ccc(Br)s2)C1 (configuration not stated) | 5.2 | x | x | 12% | x | -21

Ordered by value in D2 potentiator (descending): some entries from above.
| compound | D2 agonist | D2 potentiator | PINK1 expr mod | Six1-Eya2 blk | TRPML1 blocker |
| --- | --- | --- | --- | --- | --- |
| Cc1cccc(N2C(=O)C3C4C=CC(CC4)C3C2=O)c1 (configuration not stated) | -7.4 | 16 | -0.7% | 11 | x |
| CCOC(=O)c1sc(NC(=O)Nc2ccc(F)cc2)nc1C | -3.2 | -4 | 12% | 2 | -2 |
| COc1ccc(/C=N/OC(=O)Nc2ccc(Cl)cc2)c(OC)c1 | -6.7 | -14 | 1.6% | 42 | 11 |

(continued)
SMILES | TRPML1 ag | D2 agonist | D2 potentiator | PINK1 expr mod | Six1-Eya2 blk | TRPML1 blocker
COc1ccc(C2=C(C)C(=O)N(Cc3ccc(C(=O)NCc4ccc(C)cc4)cc3)S2(=O)=O)cc1 | 0.8 | x | x | 1.6% | x | -12
Cn1c(=O)[nH]c(=O)c2c1nc(N1CCCCC1)n2CC(O)CN1CCCCC1 (configuration not stated) | -0.8 | -1.5 | 17 | -3.0% | 0 | 0
CCC1Oc2ccc(C)cc2N(CC(=O)NCCCN2CCN(Cc3ccccc3)CC2)C1=O (configuration not stated) | -0.3 | 0.3 | -20 | x | -12 | 2
COc1cc(Cl)c([C@@H]2C[C@H]3CN(c4ccccc4)C(=O)[C@]34CCCN24)cc1OC | 0.3 | -2.8 | -2 | 0.3% | 2 | 23
O=C(CSCC(=O)c1ccccc1)Nc1ccccc1Cl | 0.5 | -0.7 | u | -0.7% | 4 | -1
Cc1ccc(Cn2c(=O)n(CC3CCC(C(=O)N4CCC(C)CC4)CC3)c(=O)c3sccc32)cc1 (configuration not stated) | -0.1 | x | x | 1.5% | x | -5
COc1ccc(NS(=O)(=O)c2ccc3c(c2)n(C)c(=O)c(=O)n3C)cc1Cl | -0.7 | x | x | 2.9% | x | 4
CC(/C=C\C=C\c1ccccc1)=N\NC(=O)c1cncc(Br)c1 | 0.5 | -0.4 | -12 | 11% | -7 | 19
COc1ccc(C)cc1NC(=O)CN1CCN(c2ccccc2F)CC1 | 2.4 | -0.2 | -14 | 0.7% | 6 | 14
CCc1ccc(OC2(C)CCN(Cc3ccc4c(c3)OCCO4)C2)cc1 (configuration not stated) | -0.1 | 4.1 | -13 | u | -3 | -4
COc1ccc(CCc2nnc(CCC(=O)N(C)Cc3ccncc3C)o2)cc1 | 0.0 | -0.9 | 2 | 0.8% | 3 | -19
Cc1cccc(OCC(=O)N(C)c2c(N)n(Cc3ccccc3)c(=O)[nH]c2=O)c1C | -1.2 | 2.0 | 3 | 2.1% | 2 | -5
O=C(CCN1CCN(Cc2ccccc2)CC1)Nc1ccc(OCc2ccccc2)cc1 | -0.3 | -0.1 | -22 | 0.1% | -20 | u
O=C(COC(=O)/C=C/c1ccccc1)NCc1cccs1 | -0.9 | -2.3 | 4 | 3.0% | 8 | 14
CC(=O)NC(c1cccc(F)c1)c1nc(-c2ccoc2)cs1 (configuration not stated) | -0.6 | -3.4 | -14 | 2.2% | -1 | x
Cc1ccc2c(c1)N(C(=O)CCC(=O)NCc1cccs1)CC(C)O2 (configuration not stated) | 4.6 | x | x | -0.1% | x | 30
COC(=O)c1[nH]c(C)c(/C(O)=C2\C(=O)C(=O)N(CCN3CCOCC3)C2c2ccccc2OC)c1C (configuration not stated) | -0.8 | -4.2 | -13 | -1.4% | -2 | 3
COc1cc(C(=O)NCCOc2ccccc2C)c(Br)c(OC)c1OC | 7.0 | -3.2 | 1 | -0.3% | 8 | 15
COc1ccccc1C(=O)Nc1cc(-c2cccc(Br)c2)nn1-c1ccccc1 | -0.5 | x | x | -0.4% | x | -25
COCCN(CCOC)Cc1cc(=O)oc2cc3c(cc12)CCC3 | -0.2 | -3.7 | -4 | -2.5% | 2 | -8
CCC(C)[C@@H]1NC(=O)N(CCCN2CCCC2=O)C1=O (some centres not stated) | -0.4 | -4.5 | -5 | -2.0% | -11 | -2
COC(=O)c1ccc(NC(=O)NCCn2nnc3cc(S(=O)(=O)N(C)C)ccc32)cc1 | -1.1 | x | x | 0.3% | x | 2
COc1ccc(-c2cc(C#N)nc(Oc3ccc(Cl)cc3)n2)cc1 | 2.3 | 2.4 | 11 | 13% | 6 | 65
Cc1ccc(NC(=O)C2CCN(S(=O)(=O)c3ccc(Cl)c(C(F)(F)F)c3)CC2)nc1 | 69* | 2.0 | -5 | u | -2 | -8
COc1ccc(NC(=O)c2ccc(CNc3c(NC4CCCCC4)c(=O)c3=O)cc2)cc1OC | 1.0&0.0 | -0.2&-2.4 | -24&-8 | 1.4%&0.5% | -3&0 | 11&-3

2 of these compounds, set out differently.
Value order – TRPML1 ag, D2 agonist, D2 potentiator, PINK1 expr mod, Six1-Eya2 blk, TRPML1 blocker
> COC(=O)c1ccc(NC(=O)NCCn2nnc3cc(S(=O)(=O)N(C)C)ccc32)cc1
 : -1.1, x, x, 0.3%, x, 2
> COc1ccc(-c2cc(C#N)nc(Oc3ccc(Cl)cc3)n2)cc1
 : 2.3, 2.4, 11, 13%, 6, 65

Further records
SMILES | TRPML1 ag | D2 agonist | D2 potentiator | PINK1 expr mod | Six1-Eya2 blk | TRPML1 blocker
CCOC(=O)N1CCN(C(=O)Nc2ccc(Cl)cc2)CC1 | -0.2 | -2.9 | -15 | -0.4% | -1 | 0
c1ccc(-c2csc(-c3ccc(-c4csnn4)cc3)n2)cc1 | 1.8 | -3.8 | -2 | 6.7% | 6 | 2
O=C(CN1C(=O)S/C(=C\c2ccc(F)cc2)C1=O)NCCCn1ccnc1 | -0.8 | 3.2 | 4 | -0.4% | -8 | -4
CN1c2ccc(Cl)cc2C(=O)NC1C1CC=CCC1 (configuration not stated) | 1.6 | -3.7 | -9 | 7.8% | 1 | -5
O=C(NC1CC1)C1=C[C@@H](c2ccccc2)C[C@@H](OCc2ccc(CO)cc2)O1 | 0.1 | -4.8 | -7 | 0.8% | 1 | -1
O=C(CSc1nnc(-c2ccco2)n1Cc1ccco1)Nc1ccccc1 | 0.6 | -3.8 | -28 | 0.6% | -13 | -1
Cc1ccc2c(CC(=O)NCc3ccco3)coc2c1C | 0.1 | -3.5 | -9 | 11% | -13 | -6
CC1CCN(CC(O)Cn2c3ccccc3c3ccccc32)CC1 (configuration not stated) | -1.1 | 1.1 | -25 | 2.7% | 1 | -3
Cc1csc(SCC(=O)NC2CCS(=O)(=O)C2)n1 (configuration not stated) | -0.6 | 2.1 | -3 | -0.3% | 1 | -21
Cc1ccc(N(CC(C)C)S(=O)(=O)c2nnc(NC(=O)C(C)C)s2)cc1 | 4.1 | x | x | -0.6% | x | -7
Cc1ccc(Sc2ncccc2C(=O)O)cc1C | 0.5 | 0.0 | 13 | 2.6% | 4 | 8
Cc1cc(N2CCOCC2)nc(N2CCOCC2)n1 | 0.0 | 0.2 | 1 | -1.8% | 6 | -16
O=C(NC(C(=O)N/N=C/c1cccnc1)c1n[nH]c(=O)c2ccccc12)c1ccccc1 (configuration not stated) | 3.0 | 0.7 | 1 | -1.1% | -3 | -10
CCC(C)(C)NC(=O)C(c1cccs1)N(C(=O)c1ccn[nH]1)c1ccccc1 (configuration not stated) | 2.9 | -3.5 | -2 | 0.3% | -1 | 8
Cc1ccc(C(=O)O)cc1NC(=O)C1CCCN1S(=O)(=O)c1cccc2nsnc12 (configuration not stated) | -0.3 | -4.0 | -5 | 0.8% | 6 | -8
Cc1cccc(N2CCN(c3ncnc4c3nc3n4CCCCC3)CC2)c1C | -1.3 | x | x | 0.9% | x | 1
